DUX4 inh – inhibitors of DUX4-driven ZSCAN4 reporter expression, primary screen, 293T cells, Gaussia and Italica luciferase; 293T-iDUX4 ZSCAN4-Gaussia luciferase reporter, 24 h; stronger effect = lower value; activity change, negative = inhibition, % (no concentration beside the values); actives 0.8% (n = 37,000); AID 1224904, 2016;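 active means -10% or lower and over 25 points stronger than a control reporter; inconclusive means -10% or lower with a smaller gap; inactive means above -10%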;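 further: 0% = median of neutral control wells and -100% = median of positive control wells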
DUX4 inh difference – also measured in DUX4 inh; calls as there; Gaussia minus Italica difference, %; measured here: selective DUX4 reporter inhibition;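 worked out from the two reporters; negative = selective loss of the DUX4 reporter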
DUX4 inh control – recorded beside DUX4 inh, whose call it bears; activity change, negative = inhibition, %; measured here: Italica tet-on control reporter;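 0 = neutral control and -100 = positive control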
The depositor's hits bear a star; u = inconclusive; x = no result given; & = joins results of further samples. The list is partial; count on the stated rates, not on these rows.

SMILES | DUX4 inh | DUX4 inh difference | DUX4 inh control
C[C@@H]1CCCCO[C@@H](CN(C)CC2CCCCC2)[C@@H](C)CN([C@H](C)CO)C(=O)c2cc(NS(C)(=O)=O)ccc2O1 | 1 | 0 | 0.4
CCCNC(=O)N1[C@@H](CO)[C@@H]2c3ccccc3N(C(=O)Nc3cccc(F)c3)C[C@@H]21 | 1 | -5 | 6.0
COCC(=O)N1[C@H](C#N)[C@H](c2ccc(C#CCC3CCCC3)cc2)[C@H]1CO | 1 | 2 | -0.5
COc1ccc(-c2ccc3c(c2)[C@@H]2[C@@H](CCN2C(=O)c2ccc4c(c2)OCO4)[C@@H](CO)N3C)cc1 | -10 | 15 | -25
O=C(Nc1ccccc1F)N1[C@@H]2CNC[C@H]1C2c1ccc(-c2ccccc2)cc1 (some centres not stated) | 5&4 | -11&-6 | 16&10
C[C@H](CO)N1C[C@H](C)[C@H](CN(C)C(=O)Nc2ccc3c(c2)OCO3)Oc2cc(C3=CCCCC3)ccc2S1(=O)=O | -6 | -5 | -0.5
C[C@@H]1CN([C@H](C)CO)C(=O)c2ccccc2-c2ccccc2CO[C@H]1CN(C)C(=O)Nc1ccc2c(c1)OCO2 | 9 | 8 | 1.1
CNC(=O)C[C@H]1CC[C@@H]2[C@@H](COc3ccc(NC(=O)Nc4ccccc4OC)cc3C(=O)N2C)O1 | 0 | -6 | 5.5
C[C@H]1CN([C@@H](C)CO)C(=O)Cc2cc(NC(=O)CCC(F)(F)F)ccc2O[C@H]1CN(C)CC1CC1 | -3 | -1 | -1.5
C[C@H](CO)N1C[C@H](C)[C@H](CN(C)S(=O)(=O)c2ccc(C(F)(F)F)cc2)OCc2ccccc2-c2ccccc2C1=O | u | x | x
N#C[C@H]1[C@@H](c2ccccc2-c2ccc(F)cc2)[C@H](CO)N1c1ncc(-c2ccccc2)s1 | u | x | x
C[C@H](CO)N1C[C@H](C)[C@@H](CN(C)C(=O)c2cccnc2)Oc2ncc(-c3ccc(C(=O)N(C)C)cc3)cc2C1=O | 1 | -7 | 7.8

Compounds from the list above that contain a halogen (five):
SMILES | DUX4 inh | DUX4 inh difference | DUX4 inh control
CCCNC(=O)N1[C@@H](CO)[C@@H]2c3ccccc3N(C(=O)Nc3cccc(F)c3)C[C@@H]21 | 1 | -5 | 6.0
O=C(Nc1ccccc1F)N1[C@@H]2CNC[C@H]1C2c1ccc(-c2ccccc2)cc1 (some centres not stated) | 5&4 | -11&-6 | 16&10
C[C@H]1CN([C@@H](C)CO)C(=O)Cc2cc(NC(=O)CCC(F)(F)F)ccc2O[C@H]1CN(C)CC1CC1 | -3 | -1 | -1.5
C[C@H](CO)N1C[C@H](C)[C@H](CN(C)S(=O)(=O)c2ccc(C(F)(F)F)cc2)OCc2ccccc2-c2ccccc2C1=O | u | x | x
N#C[C@H]1[C@@H](c2ccccc2-c2ccc(F)cc2)[C@H](CO)N1c1ncc(-c2ccccc2)s1 | u | x | x

(cont.)
SMILES | DUX4 inh | DUX4 inh difference | DUX4 inh control
O=C(NCC1CCCCC1)[C@@H]1[C@@H](CO)[C@@H]2Cn3c(ccc(-c4ccc(F)cc4)c3=O)[C@H]1N2 | 4 | 6 | -2.0
O=C(C[C@H]1C[C@@H]2c3cc(NC(=O)NC4CCCC4)ccc3O[C@@H]2[C@H](CO)O1)NCc1ccncc1 | -4 | -6 | 2.5
COc1ccc2c3c(n(C)c2c1)[C@@H](CO)N(C(=O)CN(C)C)CC31CN(Cc2nccs2)C1 | 13 | -1 | 14
Cc1ccc(OC(=O)N(C)C[C@@H]2OCc3ccccc3-c3ccccc3C(=O)N([C@@H](C)CO)C[C@H]2C)cc1 | 3 | -2 | 4.3
CCCC(=O)Nc1ccc2c(c1)OC[C@H](C)N(C(=O)CN(C)C)C[C@H](C)[C@@H](OC)CN(C)C2=O | 8 | 6 | 1.7
COc1cccc(S(=O)(=O)Nc2ccc3c(c2)C(=O)N(C)C[C@H](OC)[C@H](C)CN(C(=O)Cc2cccnc2)[C@H](C)CO3)c1 | -1 | 2 | -2.8
CN1C(=O)c2cc(NC(=O)C3CCOCC3)ccc2OC[C@@H]2O[C@H](CC(=O)NC3CCCC3)CC[C@H]21 | -3 | -4 | 1.6
O=C(NCC1CCCCC1)[C@@H]1[C@@H](CO)[C@@H]2Cn3c(cccc3=O)[C@H]1N2CCc1ccccc1 | -5 | -5 | -0.1
C[C@H](CO)N1C[C@H](C)[C@@H](CN(C)C(=O)Nc2ccc3c(c2)OCO3)Oc2ccc(NC(=O)NC3CCCCC3)cc2C1=O | 3 | 3 | 0.4
O=C(CC(F)(F)F)N1C[C@@H]2[C@H](c3ccccc31)[C@@H](CO)N2CC1CCCCC1 | -3 | 2 | -5.2
CCc1cnc(N2[C@H](C#N)[C@H](c3ccc(C#Cc4ccccc4F)cc3)[C@H]2CO)s1 | 0 | 0 | 0.4
C[C@@H]1CCCCO[C@H](CN(C)C(=O)Cc2ccccc2)[C@@H](C)CN([C@@H](C)CO)C(=O)c2cc(N(C)C)ccc2O1 | 4 | 0 | 4.4
C[C@@H]1CCCCO[C@H](CN(C)C(=O)CCCN(C)C)[C@@H](C)CN([C@H](C)CO)C(=O)c2cc(N(C)C)ccc2O1 | 0 | 1 | -0.5
CO[C@@H]1CN(C)C(=O)c2cc(NS(=O)(=O)c3ccc(Cl)cc3)ccc2OC[C@@H](C)N(C(=O)Cc2cccnc2)C[C@H]1C | -3 | 0 | -3.4
COCC#Cc1ccc2c(c1)O[C@@H](CN(C)S(=O)(=O)c1ccc(OC)cc1)[C@H](C)CN([C@@H](C)CO)S2(=O)=O | -1 | -5 | 3.3
COc1cccc(NC(=O)N2C[C@H](O)COC[C@H]3O[C@@H](CC(=O)NCCCN4CCOCC4)CC[C@@H]32)c1 | 26 | 15 | 12
CCS(=O)(=O)N1CC2(C1)CN(S(=O)(=O)c1ccc(C)cc1)[C@H](CO)c1[nH]c3cc(OC)ccc3c12 | -5 | -3 | -2.1
O=C(C[C@@H]1C[C@H]2c3cc(NC(=O)c4cccnc4)ccc3O[C@H]2[C@@H](CO)O1)NC1CCCCC1 | 3 | -3 | 6.6
O=C(c1cccc(F)c1)N1CC(=O)N2[C@H](CO)[C@H](c3ccc(-c4ccccc4F)cc3)[C@H]2C1 | 0 | -9 | 9.2
CNC[C@@H]1Oc2c(NC(=O)NC3CCCCC3)cccc2C(=O)N([C@H](C)CO)C[C@@H]1C | 4 | 1 | 2.8
C[C@@H]1CCCCO[C@H](CN(C)S(=O)(=O)c2ccc(F)cc2)[C@@H](C)CN([C@H](C)CO)C(=O)c2cc(NC(=O)CCCCCC(=O)Nc3ccccc3N)ccc2O1 | 2 | 4 | -1.8
O=C(c1cccnc1)N1C[C@@H]2[C@H](c3ccccc31)[C@@H](CO)N2C(=O)C1CCOCC1 | 3 | 5 | -2.3
COc1cccc(S(=O)(=O)Nc2ccc3c(c2)C(=O)N(C)C[C@H](OC)[C@@H](C)CN(Cc2ccccc2F)[C@@H](C)CO3)c1 | u | x | x
CCNC(=O)[C@H]1[C@H](CO)[C@H]2Cn3c(ccc(-c4ccccc4)c3=O)[C@H]2N1Cc1ccccn1 | 2 | -3 | 4.9
N#Cc1cccc(-c2ccc3c(c2)[C@@H]2[C@@H](CCN2S(=O)(=O)c2ccccc2F)[C@H](CO)N3)c1 | u | x | x
C[C@@H]1CN([C@@H](C)CO)C(=O)CCCn2cc(nn2)CO[C@@H]1CN(C)C(=O)Nc1ccc2c(c1)OCO2 | 6 | 7 | -0.9
C[C@H]1CN([C@@H](C)CO)C(=O)c2cccc(NC(=O)CCCCCC(=O)Nc3ccccc3N)c2O[C@H]1CN(C)Cc1ccc(Cl)c(Cl)c1 | 1 | 1 | -0.1
COc1ccc2c3c([nH]c2c1)[C@@H](CO)N(Cc1ccc(Cl)cc1)CC31CCN(Cc2nccs2)CC1 | u | x | x
Cc1noc(C)c1NC(=O)Nc1ccc2c(c1)C(=O)N([C@@H](C)CO)C[C@@H](C)[C@H](CN(C)S(=O)(=O)c1cccs1)OCCCC[C@@H](C)O2 | -1 | -2 | 0.8
N#C[C@H]1[C@@H](c2ccccc2-c2ccccc2)[C@@H](CO)N1C(=O)Cc1ccncc1 | 15 | 12 | 3.0
CCC(=O)N1C[C@@H](C)[C@H](OC)CN(C)C(=O)c2cc(NC(=O)C3CC3)ccc2OC[C@@H]1C | -4 | -3 | -1.2
CCCNC(=O)N1[C@@H](C#N)[C@H](c2ccc(-c3cccnc3)cc2)[C@@H]1CO | 2 | 0 | 2.8
O=C(CCN1CCCCC1)N[C@H]1CC[C@H](CCNC(=O)c2cc(Cl)cc(Cl)c2)O[C@@H]1CO | -1 | 1 | -2.8
O=C(Nc1ccccc1F)N1CCCCN2[C@@H](CO)[C@@H](c3ccc(C#Cc4cccnc4)cc3)[C@@H]2C1 | u | x | x
C[C@H](CO)N1C[C@H](C)[C@@H](CN(C)S(=O)(=O)c2ccc3c(c2)OCCCO3)OCc2cn(nn2)CCCC1=O | -1 | -4 | 2.8
C[C@H]1CN([C@@H](C)CO)C(=O)Cc2cc(NS(=O)(=O)c3ccc(Cl)cc3)ccc2O[C@H]1CN(C)C(=O)Nc1ccc(C(F)(F)F)cc1 | -2 | -2 | -0.1
C[C@@H]1CN([C@@H](C)CO)C(=O)c2c(c3ccccc3n2C)-c2ccccc2CO[C@H]1CN(C)C(=O)[C@@H]1CCCN1C | 2 | 1 | 1.2
CCS(=O)(=O)N1CC2(CN(Cc3ccccc3OC)[C@H](CO)c3c2c2ccc(OC)cc2n3C)C1 | -6 | 5 | -11
CCCN1[C@@H]2c3ccc(C4=CCCCC4)c(=O)n3C[C@H]1[C@H](CO)[C@H]2C(=O)NCCc1ccncc1 | 4 | 2 | 2.0
CC(C)CC#Cc1ccc([C@H]2[C@@H](CO)N3C(=O)CN(C(=O)NC(C)C)C[C@@H]23)cc1 | 4 | -11 | 15
COC(=O)C[C@@H]1CC[C@H]2[C@@H](COc3ccc(NC(=O)Nc4ccc(Cl)cc4)cc3C(=O)N2C)O1 | 2 | -2 | 3.3
CCCC(=O)N1CC2(C1)CN(Cc1ccncc1)[C@H](CO)c1[nH]c3cc(OC)ccc3c12 | 10 | 0 | 9.8
O=C(c1cccc(F)c1)N1C[C@@H]2[C@H](c3ccccc31)[C@@H](CO)N2C(=O)c1ccccn1 | -6 | -6 | 0.2
CO[C@@H](CN(C)Cc1nccs1)[C@H](C)CN([C@H](C)CO)S(=O)(=O)c1ccc(C)cc1 | 0 | -1 | 1.1
CN(C)C(=O)[C@H]1[C@H](CO)[C@H]2Cn3c(ccc(-c4ccncc4)c3=O)[C@H]2N1Cc1ccccc1F | 11 | 3 | 7.9
COc1ccccc1S(=O)(=O)N1C[C@@H]2N[C@H](C1)C2c1ccc(-c2cccnc2)cc1 (some centres not stated) | u | -4 | 3.4
Cc1ccc(S(=O)(=O)N2C[C@@H](O)COC[C@H]3O[C@@H](CC(=O)NCc4ccc(Cl)c(Cl)c4)CC[C@@H]32)cc1 | u | x | x
O=C(c1ccccn1)N1CC2(C1)[C@H](c1ccccc1)[C@H](CO)N2C(=O)C1CC1 | -4 | -1 | -3.4

A few values from the list:
DUX4 inh result of CCCC(=O)N1CC2(C1)CN(Cc1ccncc1)[C@H](CO)c1[nH]c3cc(OC)ccc3c12 is entered as 10
DUX4 inh difference result of O=C(c1ccccn1)N1CC2(C1)[C@H](c1ccccc1)[C@H](CO)N2C(=O)C1CC1 is entered as -1

Continuation:
SMILES | DUX4 inh | DUX4 inh difference | DUX4 inh control
O=C(NCC[C@@H]1CC[C@H](NC(=O)c2ccncc2)[C@@H](CO)O1)Nc1ccc(Cl)cc1 | -3 | -2 | -0.6
CN1c2ccc(-c3cccc(F)c3)cc2[C@H]2[C@H](CCN2C(=O)C2CCOCC2)[C@H]1CO | 3 | 1 | 2.6
COc1cccc(CNC(=O)[C@H]2[C@H](CO)[C@H]3Cn4c(ccc(-c5ccncc5)c4=O)[C@@H]2N3C(C)=O)c1 | 1 | -1 | 1.9
C[C@@H]1CN([C@H](C)CO)C(=O)c2cc(NC(=O)NC3CCCCC3)ccc2O[C@@H](C)CCCCO[C@H]1CN(C)C(=O)Nc1ccc(F)cc1 | -1 | -1 | -0.1
O=C(NC[C@@H]1[C@@H](c2ccccc2)[C@H](CO)N1Cc1ccccn1)C1CCCC1 | 3 | 0 | 2.8
CCCNC(=O)N1C[C@H](C)[C@@H](OC)CN(C)C(=O)c2cc(NS(C)(=O)=O)ccc2OC[C@@H]1C | 2 | 1 | 0.7
Cc1noc(C)c1NC(=O)Nc1cccc2c1O[C@H](CN(C)C(=O)NC1CCCCC1)[C@@H](C)CN([C@@H](C)CO)C2=O | 6 | 4 | 1.7
C[C@@H]1CN([C@H](C)CO)C(=O)c2cc(NS(=O)(=O)c3cccs3)ccc2O[C@@H]1CN(C)S(=O)(=O)c1ccc(Cl)cc1 | 1 | -2 | 3.1
O=C(CN1CCOCC1)N1CCCCN2[C@@H](CO)[C@@H](c3ccc(-c4ccccc4F)cc3)[C@@H]2C1 | 8 | 5 | 2.7
CCN1[C@@H]2Cn3c(ccc(/C=C/c4ccccc4)c3=O)[C@H]1[C@@H](C(=O)N1CCOCC1)[C@@H]2CO | 4 | 2 | 1.7
CO[C@H]1CN(C)C(=O)c2cc(C#N)ccc2OC[C@H]2O[C@H](CC[C@H]2OC)CCN(C)C(=O)[C@@H]1C | -1 | -1 | -0.5

Arranged by value in DUX4 inh (high to low): three of the compounds above.
smiles,DUX4 inh
CN1c2ccc(-c3cccc(F)c3)cc2[C@H]2[C@H](CCN2C(=O)C2CCOCC2)[C@H]1CO,3
CCCNC(=O)N1C[C@H](C)[C@@H](OC)CN(C)C(=O)c2cc(NS(C)(=O)=O)ccc2OC[C@@H]1C,2
C[C@@H]1CN([C@H](C)CO)C(=O)c2cc(NS(=O)(=O)c3cccs3)ccc2O[C@@H]1CN(C)S(=O)(=O)c1ccc(Cl)cc1,1

Source: PubChem (Broad Institute)
